Source: PubChem BioAssay (National Center for Advancing Translational Sciences (NCATS))
D2 agonist = Beta-Arrestin HTS for Positive Allosteric Modulators of the Human D2 Dopamine Receptor: Agonists; D(2) dopamine receptor (Homo sapiens), P14416; DiscoveRx PathHunter D2 beta-arrestin, luminescence, 90 min; 100% = 57 uM dopamine signal; activation, % (concentration not given with the values); 360,000 tested, 0.084% active; in the data active = activation above about 40%; inconclusive = about 15% to 40%; inactive = below about 15%; further: compound concentration not given in the record; the text of the record calls up to 30% inactive
Target sequence (P14416 whole entry, looked up): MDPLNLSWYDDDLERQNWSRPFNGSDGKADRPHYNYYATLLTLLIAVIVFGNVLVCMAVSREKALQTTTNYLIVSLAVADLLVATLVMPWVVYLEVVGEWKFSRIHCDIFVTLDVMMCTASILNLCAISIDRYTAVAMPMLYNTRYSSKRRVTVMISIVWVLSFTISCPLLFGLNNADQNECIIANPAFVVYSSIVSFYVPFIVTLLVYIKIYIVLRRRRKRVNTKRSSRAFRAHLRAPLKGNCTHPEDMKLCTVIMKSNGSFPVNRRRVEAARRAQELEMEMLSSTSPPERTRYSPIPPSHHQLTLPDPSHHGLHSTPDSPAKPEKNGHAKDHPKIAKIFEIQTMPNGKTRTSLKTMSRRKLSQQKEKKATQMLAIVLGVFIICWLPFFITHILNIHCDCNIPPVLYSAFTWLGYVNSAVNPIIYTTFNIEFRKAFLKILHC
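DiscoveRx PathHunter D2 beta-arrestin cells (2,100/well) attached overnight, then compound-stimulated 90 min at 37 C in HBSS/10 mM HEPES/0.1% Tween-20 buffer; beta-galactosidase complementation read by luminescence after 1 h at ambient temperature. Dopamine 57 uM final (EC100) as control.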
PINK1 modulator = A Quantitative High throughput Screen to Identify Chemical Modulators of PINK1 Expression. AID 624263, 2012. PINK1 immunofluorescence, high-content cytometry, 24 h. 410,000 tested, 0.2% active. Potency, µM (titrated, usually from 76.6 µM), without a hit: top-dose activation (PINK1 increase), most hits filed as activators; active = well fitted activation curve with a large enough effect; inconclusive = small, poorly fitted or top-dose-only effect; inactive = flat fitted curve, though single readings scatter; cell line not stated here;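 further: potency means the concentration at half of the fitted maximal effect; % of control where 0% means no effect; nearly all actives have a fitted effect of over 65% in size; a mitochondrial uncoupler was the plate control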
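PINK1 protein, normally rapidly degraded, was detected by immunofluorescence after 24 hour compound treatment of a stable cell line. Titration data (5 concentrations) came from laser-scanning cytometry, with CCCP-treated wells as controls.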
TRPML1 agonist = qHTS for Agonists of the Human Mucolipin Transient Receptor Potential 1 (TRPML1). activation, % (concentration not given with the values). Mucolipin-1 (Homo sapiens), Q9GZU1. TRPML1-expressing cells, Ca2+ dye fluorescence, FDSS; host cell line not named in the record; reference of the full effect not given here. 410,000 tested, 0.12% active; in the data active = activation above about 50%; inconclusive = about 30% to 50%; inactive = below about 30%; further: 0% is about no effect; the text of the record puts the active cut at 80%
Target sequence (Q9GZU1 whole entry, looked up): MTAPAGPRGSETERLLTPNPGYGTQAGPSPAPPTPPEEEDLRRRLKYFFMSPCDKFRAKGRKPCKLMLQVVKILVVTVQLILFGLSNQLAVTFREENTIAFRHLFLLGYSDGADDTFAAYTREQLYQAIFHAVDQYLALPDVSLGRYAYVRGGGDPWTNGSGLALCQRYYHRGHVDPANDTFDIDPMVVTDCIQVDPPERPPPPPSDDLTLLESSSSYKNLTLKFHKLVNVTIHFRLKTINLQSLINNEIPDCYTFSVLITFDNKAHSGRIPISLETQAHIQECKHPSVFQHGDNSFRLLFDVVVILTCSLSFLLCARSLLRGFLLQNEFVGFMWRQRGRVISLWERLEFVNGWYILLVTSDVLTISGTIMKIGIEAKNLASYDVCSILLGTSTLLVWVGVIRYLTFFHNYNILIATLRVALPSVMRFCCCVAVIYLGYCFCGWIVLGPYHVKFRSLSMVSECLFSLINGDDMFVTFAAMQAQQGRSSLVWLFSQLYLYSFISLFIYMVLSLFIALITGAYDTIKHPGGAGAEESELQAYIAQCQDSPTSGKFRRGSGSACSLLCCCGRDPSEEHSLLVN
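Tetracycline-induced TRPML1-DL cells are seeded and incubated overnight before loading with a no-wash Ca2+ dye and quencher. Agonist activity is taken from the 110 s fluorescence read following compound pin-transfer on an FDSS, before EC80 54-4 challenge.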
TRPML1 blocker = qHTS for Inhibitors of the Human Mucolipin Transient Receptor Potential 1 (TRPML1); Mucolipin-1 (Homo sapiens), Q9GZU1; TRPML1-inducible cells, Ca2+ dye fluorescence, FDSS; stronger effect = lower value; inhibition of EC80 agonist-evoked calcium signal; activity change, negative = inhibition, % (no concentration beside the values); 390,000 tested, 0.02% active; in the data active means activity change below about -50%; inconclusive means about -30% to -50%; inactive means above about -30%;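 further: stimulus is agonist 54-4 at its EC80 concentration; on the % scale 0 is the no-effect control and ±100 the full control effect; compound concentration not given in the record; the text of the record puts the active cut at -80%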
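TRPML1-DL cells, Tet-induced overnight (~16 h, 37 °C) at 1,500 cells/well, were loaded with Ca8 no-wash dye plus quencher for 45-90 min at room temperature. Compounds were pinned during FDSS kinetic reading; agonist 54-4 at EC80 (4 uM final) then added.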
Six1-Eya2 inh = qHTS Assay for Inhibitors of the Six1/Eya2 Interaction | Homeobox protein SIX1 (Homo sapiens) + Protein phosphatase EYA2 (Homo sapiens), … | AlphaScreen GST-Six1/His-Eya2 binding, biochemical; stronger effect = lower value; control for the full effect not named in the record | activity change, % (test concentration not listed) | 360,000 tested, 0.56% active | AID 651725, 2012; in the data active = activity change below about -65%; inconclusive = about -30% to -65%; inactive = above about -30%; further: on the % scale 0 is the no-effect control and ±100 the full control effect; compound concentration not given in the record
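GST-Six1 + His-Eya2 (5X stock: 250/500 nM); Tris pH 8.0, 300 mM NaCl, 0.05% BSA, 0.02% Tween 20; GSH donor/Ni acceptor beads; 1 h 37 °C dark; AlphaScreen readout.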
CtBP-E1A inh = qHTS Assay for Inhibitors of the CtBP/E1A Interaction. AlphaScreen GST-E1A/His-CtBP binding, 1536-well; stronger effect = lower value; control for the full effect not named in the record. CtBP / adenovirus E1A interaction (AlphaScreen). AID 651724, 2012. activity change, % (no concentration beside the values). 340,000 tested, 0.49% active; in the data active means activity change below about -65%; inconclusive means about -30% to -65%; inactive means above about -30%; further: on the % scale 0 is the no-effect control and ±100 the full control effect; compound concentration not given in the record
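Protein mix (5X: 125 nM each GST-E1A, His-CtBP) was incubated with pinned compound 2 h at 37 deg C in dark, in 50 mM Tris pH 8.0 buffer with 300 mM NaCl. Glutathione donor and nickel acceptor beads followed; AlphaScreen signal read after 1 h.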
* = called active by the depositor; ? = inconclusive; / = not tested or not shown; & = joins results of further samples; [ ] = remark or other dose.

SMILES | D2 agonist | PINK1 modulator | TRPML1 agonist | TRPML1 blocker | Six1-Eya2 inh | CtBP-E1A inh
Fc1ccc(C2CC(c3cccs3)=NN2c2ccccc2)cc1 (stereo not drawn) | 0.6 | 6.7% | 1.6 | 0 | 123 | 68
COc1ccccc1/C=C/CN1CCC(n2nccc2NC(=O)CCc2ccccc2)CC1 | -5.8 | 4.4% | 1.0 | 25 | -5 | /
Cc1nc(Cc2ccc(OC(C)C)cc2)[nH]c(=O)c1CC(=O)O | 1.9 | 1.8% | 0.0 | -5 | 10 | -20
O=C1c2[nH]nc(-c3ccccc3O)c2C(c2cccc(OCc3ccccc3)c2)N1CCCO (stereo not drawn) | / | 0.1% | -0.5 | -8 | / | /
Cc1ccc(S(=O)(=O)NCCSc2ccccc2)cc1[N+](=O)[O-] | 1.0 | 4.7% | 2.7 | -16 | -10 | -8
COc1ccc(CC(=O)O/N=C(\N)c2ccc(C)cc2)cc1 | 0.6 | 4.1% | 6.7 | -4 | 55 | 124
Cc1cnc(NC(=O)c2ccc(OCC3CCCO3)cc2)s1 (stereo not drawn) | -0.6 | -0.9% | 0.6 | -3 | 14 | 2
Cc1ccc(N(Cc2ccccc2)C(=O)CN2C(=O)NC3(CCCC3)C2=O)cc1 | 5.5 | 1.2% | 0.2 | -1 | -2 | -2
Cc1nc2ccc(NC(=O)c3ccc(Cl)s3)cc2s1 | -7.6 | 16% | -0.7 | 11 | -5 | -2
CCC(=O)NC(Nc1ncc(C)s1)(C(=O)OC)C(F)(F)F (stereo not drawn) | -1.5 | -0.3% | -0.2 | 8 | 1 | -9
CCc1cccc(C)c1NC(=O)CCCn1c(=O)c2cccn2c2cccnc21 | 0.9 | 1.2%&3.4% | -0.2&-0.6 | 22&-11 | 1 | 3
COc1cccc(CNC(=O)[C@@H]2CCCN2C(=O)[C@@H]2CCCN2S(=O)(=O)c2ccc(OC)c(C)c2)c1 | / | -0.6% | -1.1 | / | -3 | 2

Reformatted: 12 of the compounds above
Values in the order: D2 agonist | PINK1 modulator | TRPML1 agonist | TRPML1 blocker | Six1-Eya2 inh | CtBP-E1A inh
- Fc1ccc(C2CC(c3cccs3)=NN2c2ccccc2)cc1 (stereo not drawn)
  0.6 | 6.7% | 1.6 | 0 | 123 | 68
- COc1ccccc1/C=C/CN1CCC(n2nccc2NC(=O)CCc2ccccc2)CC1
  -5.8 | 4.4% | 1.0 | 25 | -5 | /
- Cc1nc(Cc2ccc(OC(C)C)cc2)[nH]c(=O)c1CC(=O)O
  1.9 | 1.8% | 0.0 | -5 | 10 | -20
- O=C1c2[nH]nc(-c3ccccc3O)c2C(c2cccc(OCc3ccccc3)c2)N1CCCO (stereo not drawn)
  / | 0.1% | -0.5 | -8 | / | /
- Cc1ccc(S(=O)(=O)NCCSc2ccccc2)cc1[N+](=O)[O-]
  1.0 | 4.7% | 2.7 | -16 | -10 | -8
- COc1ccc(CC(=O)O/N=C(\N)c2ccc(C)cc2)cc1
  0.6 | 4.1% | 6.7 | -4 | 55 | 124
- Cc1cnc(NC(=O)c2ccc(OCC3CCCO3)cc2)s1 (stereo not drawn)
  -0.6 | -0.9% | 0.6 | -3 | 14 | 2
- Cc1ccc(N(Cc2ccccc2)C(=O)CN2C(=O)NC3(CCCC3)C2=O)cc1
  5.5 | 1.2% | 0.2 | -1 | -2 | -2
- Cc1nc2ccc(NC(=O)c3ccc(Cl)s3)cc2s1
  -7.6 | 16% | -0.7 | 11 | -5 | -2
- CCC(=O)NC(Nc1ncc(C)s1)(C(=O)OC)C(F)(F)F (stereo not drawn)
  -1.5 | -0.3% | -0.2 | 8 | 1 | -9
- CCc1cccc(C)c1NC(=O)CCCn1c(=O)c2cccn2c2cccnc21
  0.9 | 1.2%&3.4% | -0.2&-0.6 | 22&-11 | 1 | 3
- COc1cccc(CNC(=O)[C@@H]2CCCN2C(=O)[C@@H]2CCCN2S(=O)(=O)c2ccc(OC)c(C)c2)c1
  / | -0.6% | -1.1 | / | -3 | 2

More structures follow:
SMILES | D2 agonist | PINK1 modulator | TRPML1 agonist | TRPML1 blocker | Six1-Eya2 inh | CtBP-E1A inh
Cc1ccc(F)cc1NC(=O)C1CCCN(c2ncccn2)C1 (stereo not drawn) | 2.1 | -0.1%[38.3 µM] | -0.2 | 17 | 3 | 9
CC(C)=C1SC(N2CCN(c3cccc(Cl)c3)CC2)=NC1=O | 2.7 | 5.5% | 2.3 | 26 | -4 | -7
COc1ccc(-c2nc(CS(=O)CC(=O)NC3CCCCC3)c(C)o2)cc1 (stereo not drawn) | 0.4 | 0.3% | -0.6 | -4 | 1 | 4
O=c1c(-c2ccnn2-c2cccc(Cl)c2)cnc2n1CCS2 | -2.0 | -0.6% | 0.0 | 22 | 1 | 4
Cc1cc(C)c(C)c(S(=O)(=O)N2CCN(CC(=O)Nc3sccc3C#N)CC2)c1C | 1.5 | 2.7% | 0.5 | 43 | -12 | 9
CC1=CC(c2ccccc2)n2nc(NC(=O)CCC(=O)O)nc2N1 (stereo not drawn) | -0.6 | -1.8% | 0.2 | 5 | -3 | -5
Cc1ccc(Cn2c(CN3CCC(C(=O)NCCc4ccccc4)CC3)cc3ccccc32)cc1 | / | 6.7% | 2.2 | 1 | / | /
COC(=O)c1cc(-c2cccc(OC)c2)c2c(=O)[nH]c(=O)n(C)c2n1 | 4.0 | 3.6% | 2.0 | -11 | -23 | -6
O=C(O)c1ccccc1C(=O)NCc1cccnc1 | -0.7 | -0.4% | 0.0 | 13 | 6 | 16
O=[N+]([O-])c1ccc2oc(-c3cccc(O)c3)nc2c1 | 0.8 | -1.8% | 1.0 | -11 | -13 | -4
O=C(Nc1ccccc1)Nc1ccc2ocnc2c1 | -1.9 | 1.7% | 0.2 | -14 | 2 | -19
CNC(=S)Nc1ccc(N2CCCC2)c(S(=O)(=O)Nc2ccc(OC)cc2)c1 | -1.9 | -1.2% | -0.1 | ? | -27 | -19
O=C(NC1CCCCC1)C(=S)NCCc1ccccc1 | 2.5 | 4.1% | 2.7 | 7 | 3 | 9
O=C(CCS(=O)(=O)c1ccc(Cl)cc1)Nc1nc(-c2cccnc2)cs1 | 1.2 | -1.7% | 0.4 | -12 | 4 | 1
CC(C)OC(=O)c1cc(NC(=S)Nc2ccc([N+](=O)[O-])cc2)cc(C(=O)OC(C)C)c1 | -3.5 | 14µM* | -0.6 | 2 | 0 | 7
Fc1cccc(CNC2CCN(CCc3ccccc3)CC2)c1 | -0.1 | -0.8% | 0.6 | 9 | 2 | -4
O=C1C2C3C=CC([C@@H]2C(=O)N1C1CCCCC1)[C@H]1C(=O)N(C2CCCCC2)C(=O)C31 (stereo partly drawn) | -1.6 | -0.5% | 4.7 | 9 | -1 | 8
Cc1cc(S(=O)(=O)NCC(C)C)ccc1OCC(=O)NC1CC1 | -2.6 | 0.8% | 0.7 | -9 | -8 | 7
CCOc1ccc(-c2csc(NNC3=NCCCCC3)n2)cc1 | -3.0 | 9.2% | 0.7 | -2 | -4 | /
Cc1nc(NC(=O)c2ccccc2)sc1C1(C)CC(c2c(Cl)cccc2Cl)=NO1 (stereo not drawn) | 1.3 | 4.3% | 1.6 | 11 | -9 | -24
O=C(CCn1c(=O)c2cccn2c2cccnc21)NCc1ccccc1F | / | 1.3% | 0.1 | -18 | / | /
CCN1C(=O)CSC1=Nc1ccc(Cl)c(Cl)c1 | 2.6 | 0.4% | 1.1 | 2 | 4 | -3
Cc1cc(C(=O)N/N=C/c2ccncc2)c2ccccc2n1 | 2.6 | -0.6% | -0.1 | 12 | -26 | -21
CCCCn1nnnc1C(c1ccccc1)N1CCN(c2ccc(C(F)(F)F)cn2)CC1 (stereo not drawn) | / | 3.3% | ? | / | 4 | 8
Oc1ccc(-c2csc(-c3ccccc3)n2)cc1O | 3.6 | 2.4%[38.3 µM] | 0.3 | 12 | -11 | -15
Cc1sc2ncnc(N3CCC(C(=O)N(C)CC(=O)Nc4ccc(Cl)c(C(F)(F)F)c4)CC3)c2c1C | 3.7 | 7.2% | -0.9 | 0 | -5 | -9
O=C(CN1CCOCC1)NCc1cc([N+](=O)[O-])ccc1O | -2.4 | 0.4% | -0.4 | -7 | 2 | 8
CC(=O)c1ccc(NC(=O)COC(=O)c2ccc(F)cc2F)cc1 | -2.5 | 0.2% | -0.6 | 3 | 1 | -13
Cn1c(=NC(=O)CS(=O)(=O)c2ccccc2)sc2cc(F)ccc21 | -1.6 | 2.3% | -0.7 | 11 | 1 | -8
CCc1ccc(NC(=O)C(C)OC(=O)CCC(=O)c2cccs2)cc1 (stereo not drawn) | -4.3 | -0.6% | 0.5 | -11 | 1 | -5
Cc1ccc(C)c(NC(=S)N/N=C2\CCc3ccccc32)c1 | -7.1 | ? | 0.3 | 7 | -29 | -1
Cc1ccnc(NS(=O)(=O)c2ccc(NC(=O)C34CC5CC(CC(C5)C3)C4)cc2)n1 | -1.2 | -0.5% | 0.5 | 5 | 19 | -3
COC(=O)[C@H](CCSC)NC(=O)NCc1ccccc1F | -1.6 | ? | 0.9 | 0 | 24 | 4
CCOC(=O)C(NC(=O)N1CCCCC1)(c1ccccc1)C(F)(F)F (stereo not drawn) | -1.7 | -2.7% | 1.3 | 6 | -1 | -10
Cc1cc(-c2cccs2)n[nH]1 | -1.6 | 1.1% | -0.6 | -2 | 14 | 4
CC(=O)N1c2c(cc(Br)cc2S(=O)(=O)NCC2COc3ccccc3O2)CC1C (stereo not drawn) | -4.0 | 0.4% | -1.0 | -6 | -4 | -2
CCOC(=O)C1=C(COC(=O)Cc2ccc(Cl)cc2)NC(=O)NC1C (stereo not drawn) | -4.1 | -1.3% | 1.4 | 11 | 6 | -1
Cc1cc(NC(=O)c2cn(C3CCCCC3)c(=O)c3c2c2ccccc2n3C)no1 | 3.6 | 1.9% | -0.6 | -4 | -14 | -13
Nc1nc2ccccc2n1CCOc1ccc(Br)cc1 | -2.4 | 9.5% | -0.3 | 0 | -3 | /
c1ccc2c(SCc3cn4cccnc4n3)ncnc2c1 | 0.1 | -1.4% | 1.1 | 6 | 1 | -2
O=C1N(CCCl)c2ccc(Br)cc2C12OCCO2 | -4.4 | -1.3% | -0.6 | -11 | -5 | -4
COc1cccc(NC(=S)N2CCC(NC(=O)c3ccco3)CC2)c1 | -8.2 | -2.0% | -1.2 | 25 | -6 | -2
